TRPML1 ag: qHTS for Agonists of the Human Mucolipin Transient Receptor Potential 1 (TRPML1) | Mucolipin-1 (Homo sapiens), Q9GZU1 | TRPML1-expressing cells, Ca2+ dye fluorescence, FDSS; host cell line not named in the record; reference of the full effect not given here | activation, % (test concentration not listed) | 410,000 compounds, 0.12% hits | AID 624414, 2012; in the data active = activation above about 50%; inconclusive = about 30% to 50%; inactive = below about 30%; further: 0% is about no effect; the text of the record puts the active cut at 80%
Target sequence (Q9GZU1 whole entry, looked up): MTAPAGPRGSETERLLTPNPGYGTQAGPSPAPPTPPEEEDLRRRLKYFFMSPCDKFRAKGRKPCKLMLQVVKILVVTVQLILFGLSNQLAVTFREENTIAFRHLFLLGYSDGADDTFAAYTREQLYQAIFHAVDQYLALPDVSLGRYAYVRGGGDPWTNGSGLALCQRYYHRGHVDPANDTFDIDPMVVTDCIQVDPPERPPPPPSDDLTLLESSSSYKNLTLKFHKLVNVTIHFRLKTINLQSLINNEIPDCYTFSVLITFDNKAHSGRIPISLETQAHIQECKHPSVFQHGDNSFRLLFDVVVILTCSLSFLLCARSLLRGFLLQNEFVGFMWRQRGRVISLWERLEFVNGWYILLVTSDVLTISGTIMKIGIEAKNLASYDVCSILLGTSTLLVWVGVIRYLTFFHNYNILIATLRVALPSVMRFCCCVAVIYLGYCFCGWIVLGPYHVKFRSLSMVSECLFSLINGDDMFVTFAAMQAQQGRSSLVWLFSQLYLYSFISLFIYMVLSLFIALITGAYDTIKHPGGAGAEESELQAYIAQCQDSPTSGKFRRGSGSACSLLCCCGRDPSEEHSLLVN
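In this qHTS format, compounds were pin-transferred onto Ca8-dye-loaded TRPML1-DL cells induced with Tet overnight, and intracellular Ca2+ fluorescence was recorded kinetically for 110 s after a 10 s baseline. A subsequent 4uM final 54-4 (EC80) addition followed by a second 110 s read served as the antagonist phase.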
D2 potentiator: Beta-Arrestin HTS for Positive Allosteric Modulators of the Human D2 Dopamine Receptor: Potentiators | D(2) dopamine receptor (Homo sapiens), P14416 | DiscoveRx D2 beta-arrestin cells, luminescence, 90 min; 100% = 57 uM dopamine signal | potentiation, % (concentration not given with the values) | 360,000 compounds, 0.23% hits; active = potentiation of 50% or more; inconclusive = 30% to 50%; inactive = 30% or less;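 further: tested on top of an EC20 dose of dopamine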
Target sequence (P14416 whole entry, looked up): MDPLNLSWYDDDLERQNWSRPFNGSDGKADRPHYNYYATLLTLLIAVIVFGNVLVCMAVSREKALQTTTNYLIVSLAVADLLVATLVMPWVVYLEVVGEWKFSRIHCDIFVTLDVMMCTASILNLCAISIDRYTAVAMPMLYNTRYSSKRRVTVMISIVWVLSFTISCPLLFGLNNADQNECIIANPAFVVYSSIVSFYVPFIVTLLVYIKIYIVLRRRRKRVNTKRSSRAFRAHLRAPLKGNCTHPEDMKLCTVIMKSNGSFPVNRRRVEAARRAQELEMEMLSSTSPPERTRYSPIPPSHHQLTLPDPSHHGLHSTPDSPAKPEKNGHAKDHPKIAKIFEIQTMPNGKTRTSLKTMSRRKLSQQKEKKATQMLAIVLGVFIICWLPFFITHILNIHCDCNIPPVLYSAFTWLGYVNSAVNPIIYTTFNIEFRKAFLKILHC
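PathHunter D2 cells, attached overnight at 37 deg C, received compound in DMSO plus dopamine at EC20 (50 nM final) for 90 min at 37 deg C. Beta-arrestin recruitment was read as luminescence after 1 h with detection reagent at ambient temperature.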
Six1-Eya2 blk: qHTS Assay for Inhibitors of the Six1/Eya2 Interaction; AlphaScreen GST-Six1/His-Eya2 binding, biochemical; hits give low values; control for the full effect not named in the record; 360,000 compounds, 0.56% hits; Homeobox protein SIX1 (Homo sapiens) + Protein phosphatase EYA2 (Homo sapiens), …; activity change, % (test concentration not listed); in the data active = activity change below about -65%; inconclusive = about -30% to -65%; inactive = above about -30%; further: on the % scale 0 is the no-effect control and ±100 the full control effect
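Compounds are tested against tagged Six1 and Eya2 proteins bridged by glutathione donor and nickel acceptor beads; after a one-hour incubation at 37 °C without light, AlphaScreen emission is recorded.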
TRPV1 PAM: HTS Assay for Compounds that Act as Potentiators of the Vanilloid Receptor 1. AID 540277, 2011. Transient receptor potential cation channel subfamily V member 1 (Homo sapiens), Q8NER1. TRPV1-expressing cells, Fluo-8 calcium influx, capsaicin EC20 potentiation; host cell line not named in the record; control for the full effect not named in the record. potentiation, % at 8.33 µM. 320,000 compounds, 0.02% hits; active means potentiation above 80%; inconclusive means 30% to 80%; inactive means below 30%; further: 0% is about no effect
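Cells expressing TRPV1 were dye-loaded with Fluo-8 and read kinetically: 10 s baseline, 3 min after compound (agonist portion), then 2 min after EC20 capsaicin (allosteric enhancer portion). Calcium-bound dye fluorescence at 480/520 nm.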
CtBP-E1A inh: qHTS Assay for Inhibitors of the CtBP/E1A Interaction; activity change, % (concentration not given with the values); AlphaScreen GST-E1A/His-CtBP binding, 1536-well; hits give low values; control for the full effect not named in the record; AID 651724, 2012; 340,000 compounds, 0.49% hits; CtBP / adenovirus E1A interaction (AlphaScreen); in the data active means activity change below about -65%; inconclusive means about -30% to -65%; inactive means above about -30%; further: on the % scale 0 is the no-effect control and ±100 the full control effect
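Protein mix (5X: 125 nM each GST-E1A, His-CtBP) was incubated with pinned compound 2 h at 37 deg C in dark, in 50 mM Tris pH 8.0 buffer with 300 mM NaCl. Glutathione donor and nickel acceptor beads followed; AlphaScreen signal read after 1 h.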
TRPML1 inh: qHTS for Inhibitors of the Human Mucolipin Transient Receptor Potential 1 (TRPML1); 390,000 compounds, 0.02% hits; TRPML1-inducible cells, Ca2+ dye fluorescence, FDSS; hits give low values; inhibition of EC80 agonist-evoked calcium signal; Mucolipin-1 (Homo sapiens), Q9GZU1; activity change, negative = inhibition, % (concentration not given with the values); in the data active means activity change below about -50%; inconclusive means about -30% to -50%; inactive means above about -30%;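 further: stimulus is agonist 54-4 at its EC80 concentration; on the % scale 0 is the no-effect control and ±100 the full control effect; the text of the record puts the active cut at -80%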
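Tet-induced TRPML1-DL cells loaded with Ca8 no-wash calcium dye were read kinetically on FDSS. Compound addition was followed by EC80 agonist 54-4 (4 uM final); inhibition was read over 110 s.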
* = called active by the depositor; ? = inconclusive; . = no result given.

SMILES	TRPML1 ag	D2 potentiator	Six1-Eya2 blk	TRPV1 PAM	CtBP-E1A inh	TRPML1 inh
O=C(COc1ccc(Br)cc1CO)Nc1ccccc1	-1.2	2	4	12	0	-5
COc1ccc2cc(C(=O)C3CCCN(C(=O)c4cncs4)C3)ccc2c1 (centres undefined)	-0.3	10	-5	25	11	19
Cc1occc1C(=O)NN=C1C2CC3CC(C2)CC1C3	-0.3	0	-2	0	-4	-6
CCOc1ccc(S(=O)(=O)N2CCCC(C(=O)NCC3CCCO3)C2)cc1 (centres undefined)	-0.2	-6	6	-6	-26	-14
CNC(=S)NCCc1cc2c(OC)ccc(OC)c2[nH]c1=O	-0.3	-11	-2	11	.	-10
CCN(/N=C/C=C/c1ccccc1)c1cc(=O)n(C)c(=O)[nH]1	0.5	-5	-13	0	-21	9
O=C(CNCC1CCCO1)N1CCCc2ccccc21 (centres undefined)	0.4	-13	7	-8	1	11
COc1ccc(S(=O)(=O)N2CCCCC2)cc1NC(=O)CNc1ccccc1N1CCCC1=O	-0.1	-9	0	8	2	-17
CCCC(C(=O)Nc1cccc(S(=O)(=O)N2CCCC2)c1)c1ccccc1 (centres undefined)	10	-8	-8	22	7	-7
NS(=O)(=O)c1ccc(CCNS(=O)(=O)c2ccc(Cl)cc2)cc1	-0.6	-12	-7	4	-9	-4
COc1c(O)ccc2c1CN1CCc3cc4c(cc3C1C2)OCO4 (centres undefined)	.	-74	-12	5	-67*	.
COc1ccccc1-c1oc2ccccc2c1-c1ccc2cc[nH]c2c1	-0.7	-3	-9	1	-1	20
CC(OC(=O)c1nsc(Cl)c1Cl)C(=O)NC(C)(C)C (centres undefined)	-0.7	-11	4	-3	-3	5
NC(=O)c1cc([N+](=O)[O-])ccc1NCc1ccc(C(=O)O)cc1	-0.6	-5	0	3	-3	17
Cc1cccc(OCC(=O)Nc2cc(S(=O)(=O)N3CCOCC3)ccc2N2CCCC2)c1C	2.1	-16	-8	5	-7	0
C/C(N)=C(/C#N)C(=O)COC(=O)c1ccc(OCC2CCCO2)cc1 (centres undefined)	0.0	-8	11	-14	1	9
COc1ccc(C)cc1S(=O)(=O)N1CCCC(C(=O)N2CCOCC2)C1 (centres undefined)	-0.3	-10	6	-1	7	4
CCn1c(-c2cc(-c3cc(OC)ccc3OC)nc3ccccc23)n[nH]c1=S	3.8	4	0	1	-5	-13
Cc1nn2c(N)c(-c3ccccc3)cnc2c1-c1ccccc1	-1.1	8	1	-17	2	23
Cc1cc(NC(=O)Cn2nnc(-c3ccccc3NC(=O)c3ccccc3F)n2)no1	0.0	-1	1	-13	-14	1
NC(=O)C1(c2ccccc2)OC1c1ccccc1 (centres undefined)	-0.1	-15	10	?	2	7
O=C(Sc1ccc(Cl)cc1)c1cccc(Cn2cc(C(F)(F)F)ccc2=O)c1	1.0	4	0	14	.	20
CC(C)(C)NC(=O)CN(C(=O)c1csnn1)c1cccc2c1CCCC2	0.7	-3	4	2	2	-11
CC1CCCCC1NC(=O)c1ccncc1 (centres undefined)	0.7	-12	6	2	-8	3
Cc1c(N=c2scc(-c3ccccc3)n2C)c(=O)n(-c2ccccc2)n1C	-0.4	-6	1	95*	-4	-7
O=C(c1ccc(OC(F)(F)F)cc1)c1ncc[nH]1	0.1	-15	1	-7	.	2
CC(C)c1c(C#N)c(N)nc(SCC(=O)c2cc3ccccc3oc2=O)c1C#N	3.0	-1	-8	13	-2	-2
CCC(C)(C(=O)NC1CCCCC1)N(Cc1ccco1)C(=O)c1ccccn1 (centres undefined)	-0.8	-18	1	14	2	-1
NC(N)=NCCCC(NC(=O)c1ccccc1)C(=O)Nc1ccc([N+](=O)[O-])cc1 (centres undefined)	0.0	-5	4	2	4	15
Cc1ccc(-n2c(C)nn(CC#N)c2=O)cc1	1.4	3	4	-7	9	-12
CCN1C(=O)/C(=C\N2CCOCC2)SC1=S	-0.9	7	1	12	1	-2
Clc1ccccc1-c1nn2c(-c3ccncc3)nnc2s1	6.6	-1	-3	-9	-15	-4
CC(OC(=O)c1ccc(S(=O)(=O)N2CCCCC2)cc1)C(=O)NC1CCCCC1C (centres undefined)	-0.4	-13	3	7	23	5
CNC(=O)C1(C)C=CCN1C(=O)c1ccccc1 (centres undefined)	-0.6	-13	1	3	4	13
CN(C)C(CNC(=O)c1cc(S(=O)(=O)N(C)c2ccc(F)cc2)ccc1Cl)c1ccco1 (centres undefined)	-0.4	-9	-4	-9	4	16
CC(=O)c1cccc(NC(=O)c2cccc3c(-c4cnn(C)c4)coc23)c1	1.5	6	-3	.	-2	-4

Sorted by value in Six1-Eya2 blk (low to high): three from the list above.
SMILES	Six1-Eya2 blk
CN(C)C(CNC(=O)c1cc(S(=O)(=O)N(C)c2ccc(F)cc2)ccc1Cl)c1ccco1 (centres undefined)	-4
Clc1ccccc1-c1nn2c(-c3ccncc3)nnc2s1	-3
Cc1c(N=c2scc(-c3ccccc3)n2C)c(=O)n(-c2ccccc2)n1C	1

Sorted by SMILES length (low to high): part of the list above.
SMILES	TRPML1 ag	D2 potentiator	Six1-Eya2 blk	TRPV1 PAM	CtBP-E1A inh	TRPML1 inh
CCN1C(=O)/C(=C\N2CCOCC2)SC1=S	-0.9	7	1	12	1	-2
Cc1ccc(-n2c(C)nn(CC#N)c2=O)cc1	1.4	3	4	-7	9	-12
O=C(c1ccc(OC(F)(F)F)cc1)c1ncc[nH]1	0.1	-15	1	-7	.	2

Next part.
SMILES	TRPML1 ag	D2 potentiator	Six1-Eya2 blk	TRPV1 PAM	CtBP-E1A inh	TRPML1 inh
Cc1ccc(S(=O)(=O)N2CCCC2C(=O)N(C)Cc2cccs2)cc1 (centres undefined)	-0.6	2	2	-9	6	2
Cc1cc(C)cc(NC(=O)COc2coc(CN3CCc4ccccc4C3)cc2=O)c1	2.8	24	0	3	-2	41
O=C(O)Cn1c2c(c3ccccc31)CCCC2	3.5	15	-5	4	-2	8
Cc1ccc(S(=O)OCC(=O)Nc2cc(Cl)ccc2N2CCOCC2)cc1 (centres undefined)	1.4	-8	-5	-10	.	-13
O=C1/C(=C/c2ccc(O)c(O)c2)Oc2cc(O)ccc21	8.2	1	-26	-3	-1	19
CCCCN1CC(COCc2ccccc2)Oc2cccc(Oc3ccccc3)c2S1(=O)=O (centres undefined)	4.6	-4	0	.	-18	54
COc1cccc(S(=O)(=O)NCc2ccc(C(=O)NCC3CCCO3)cc2)c1 (centres undefined)	-0.3	1	5	0	1	19
COc1ccc(CC(N)c2csc(NC(=O)Nc3cccc(C(F)(F)F)c3)n2)cc1 (centres undefined)	1.6	4	-1	.	2	.
Cc1ccc(S(=O)(=O)NCCNC(=O)c2cc(OCC(F)(F)F)ccc2OCC(F)(F)F)cc1	0.8	-7	-2	-30	1	6
C=CC(C)(C)c1c(O)c(CC=C(C)C)c(O)c2c(=O)c3ccc(O)c(O)c3oc12	.	-22	-12	.	0	.
CC(C)C(=O)OCC(=O)NCc1ccccc1Cl	-0.7	-7	1	9	1	1
C[C@@H]1CN([C@@H](C)CO)C(=O)Cc2cc(NC(=O)Nc3ccc(C(F)(F)F)cc3)ccc2O[C@@H]1CN(C)S(=O)(=O)c1ccc(Cl)cc1	0.1	-1	-7	.	.	4

Some values from the entries so far.
For CtBP-E1A inh, Cc1cc(C)cc(NC(=O)COc2coc(CN3CCc4ccccc4C3)cc2=O)c1 is listed with -2
For TRPML1 inh, O=C(O)Cn1c2c(c3ccccc31)CCCC2 is listed with 8
For Six1-Eya2 blk, CC(C)C(=O)OCC(=O)NCc1ccccc1Cl is listed with 1

(continued)
SMILES	TRPML1 ag	D2 potentiator	Six1-Eya2 blk	TRPV1 PAM	CtBP-E1A inh	TRPML1 inh
C=CCn1nnnc1SCC(=O)Nc1ccc(C(=O)OC)cc1	-0.3	-5	2	1	10	5
Cc1ccc(C(=O)NNC(=O)C(C)Sc2nc(N)cc(N)n2)cc1 (centres undefined)	-0.4	-6	0	-12	0	12
CS(=O)(=O)c1cc(C(=O)O)cc(NCc2ccccc2)c1Oc1ccccc1	-0.6	-7	-2	.	7	28
CC1=C(C(=O)Nc2ccc(C(=O)NCCCN3CCCCC3)cc2)SCCO1	0.4	-20	1	26	-6	9
Cc1ccc(NC(=O)COC(=O)c2ccc(S(=O)(=O)NCc3ccco3)cc2)cc1	-0.1	-3	5	5	-1	20
O=C(CN1CCN(c2ccccn2)CC1)Nc1ccc(F)cc1F	1.0	-1	18	3	.	-19
COc1ccc(NS(=O)(=O)c2ccc(C)c(C(=O)NCC(c3ccco3)N(C)C)c2)cc1 (centres undefined)	2.0	-19	7	2	-4	-4
CC(=O)N(c1ccc(Cl)cc1)c1cn(C(C)=O)c2ccccc12	-0.6	6	-2	-2	-1	-9
CCOc1cccc(OCCOc2ccccc2[N+](=O)[O-])c1	0.5	-5	23	-10	17	8
Clc1ccc2nc(C3CCCCC3)c(Cc3ccccc3)n2c1	0.6	-7	9	.	-2	6
Cc1cc2nc(C)n3c4ccccc4nc3n2n1	0.0	18	-14	3	-4	15
CN1CCN(C(=O)C2=C[C@@H](c3ccc4c(c3)OCO4)C[C@@H](OCc3ccc(CO)cc3)O2)CC1	-0.4	-1	11	-19	4	-6

In a second layout: three of the compounds above
Order of results – TRPML1 ag	D2 potentiator	Six1-Eya2 blk	TRPV1 PAM	CtBP-E1A inh	TRPML1 inh
COc1ccc(C)cc1S(=O)(=O)N1CCCC(C(=O)N2CCOCC2)C1 (centres undefined)
  -0.3	-10	6	-1	7	4
O=C(c1ccc(OC(F)(F)F)cc1)c1ncc[nH]1
  0.1	-15	1	-7	.	2
CC1CCCCC1NC(=O)c1ccncc1 (centres undefined)
  0.7	-12	6	2	-8	3

The listing continues:
SMILES	TRPML1 ag	D2 potentiator	Six1-Eya2 blk	TRPV1 PAM	CtBP-E1A inh	TRPML1 inh
CCCOC(=O)c1c(NC(=O)CCC(=O)O)sc2c1CCCCC2	-0.6	-3	19	-1	6	17
Nc1nonc1-n1nnc(C(=O)N/N=C/c2c[nH]c3ccccc23)c1-c1ccccc1	0.7	0	-3	-4	-9	-11
Cc1ccc(/C=C/C(=O)Nc2sc(C)c(C)c2C(=O)OC(C)C)o1	-0.3	-13	4	-3	12	-1
O=C(CCNC(=O)c1ccc(Br)cc1)NC1CCCc2ccccc21 (centres undefined)	0.0	-15	3	17	-23	-9
COc1cccc(NS(=O)(=O)NC(=O)c2c(C)[nH]c3ccccc23)c1	-0.4	-3	0	14	0	-2

Screening data (PubChem)
